Methyltransferases: Primary Screen for Target Class Profiling of Small Molecule Inhibitors of Methyltransferases. AID 1745853, 2022. calls only at 40 µM. 3.9% of 25,000 active. purified enzyme, MTase-Glo SAH luminescence; active compounds read low; active = -50% or lower on at least one of six enzymes; inconclusive = the cases between; inactive = as a rule above -30% on all six;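 also: enzymes were COMT GAMT GNMT HNMT NNMT and PNMT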
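Each enzyme was reacted with SAM and its substrate, with compounds tested once at 40 uM; SAH formed was read by MTase-Glo luminescence.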
Calls only; i = inactive; u = inconclusive; + = active, no number. % is scaled to controls: 0 for no effect and ±100 for the full control effect. Only part of the results is shown; the hit share may differ from the screen's.

SMILES	Methyltransferases
Cc1ccc(NC(=O)N2Cc3ccccc3-n3cccc3C2c2ccccc2)cc1F (stereo unspecified)	i
CCOCCCNC(=O)N1Cc2ccccc2-n2cccc2C1CC (stereo unspecified)	i
CCOc1ccc(NC(=O)N2Cc3ccccc3-n3cccc3C2C)cc1 (stereo unspecified)	i
O=C(Nc1cccc(Cl)c1)N1Cc2ccccc2-n2cccc2C1c1ccccc1 (stereo unspecified)	i
CC(C)NC(=O)NC[C@H]1C[C@@H]2CCN1C[C@@H]2CN1CCSCC1	i
CCOc1ccc(C2c3cccn3-c3ccccc3CN2C(=O)Nc2cccc(Cl)c2)cc1 (stereo unspecified)	i
CC(C)NC(=O)N1Cc2ccccc2-n2cccc2C1c1ccc(Cl)cc1 (stereo unspecified)	i
CCC1c2cccn2-c2ccccc2CN1C(=O)Nc1cccc(C)c1C (stereo unspecified)	i
C[C@H](CCC(=O)O)C[C@H](C)C[C@H](C)C(=O)/C=C(\O)[C@H](C)C[C@H](C)C/C=C/[C@@H](C)[C@@H](O)[C@@H](C)[C@@H](O)C[C@@H]1CC[C@@](C)([C@H]2CC[C@@](C)([C@@H](C)O)O2)O1	i
Cc1cccc(NC(=O)N2Cc3ccccc3-n3cccc3C2c2ccc(C(C)C)cc2)c1 (stereo unspecified)	i
Cc1cccc(C2c3cccn3-c3ccccc3CN2C(=O)Nc2ccc(Cl)cc2)c1 (stereo unspecified)	i
C[N+]1(C)CCN(c2ccccc2)CC1	i
C[C@H]1CC[C@@H]2[C@@H](C)[C@H]3[C@H](C[C@H]4[C@@H]5CC=C6CC(O[C@@H]7O[C@H](CO)[C@@H](O)[C@H](O[C@@H]8O[C@H](CO)[C@@H](O)[C@H](O)[C@H]8O)[C@@H]7O[C@@H]7O[C@@H](C)[C@H](O)[C@@H](O)[C@H]7O)CC[C@]6(C)[C@H]5CC[C@]34C)N2C1 (stereo partly specified)	i
COc1ccc(C)cc1NC(=O)N1Cc2ccccc2-n2cccc2C1c1cccs1 (stereo unspecified)	i
O=C(NCc1ccccc1)N1Cc2ccccc2-n2cccc2C1c1cccs1 (stereo unspecified)	i
CC(=O)NCCc1c[nH]c2ccccc12	i
Cc1ccccc1C1c2cccn2-c2ccccc2CN1C(=O)Nc1ccc(F)cc1 (stereo unspecified)	i
COc1ccc(C2c3cccn3-c3ccccc3CN2C(=O)Nc2ccc3c(c2)OCCO3)cc1 (stereo unspecified)	i
O=C(c1cccs1)N1C[C@@H]2C[C@H](C1)c1ccc(C3CCCCC3)c(=O)n1C2	i
Cc1cc(SCc2sc(-c3ccc(C(F)(F)F)c(F)c3)nc2C)ccc1OCC(=O)O	i
C/C=C(\C)C(=O)O[C@H]1[C@H](OC(C)=O)[C@]2(CO)[C@H](O)[C@H](O)[C@]3(C)C(=CCC4[C@@]5(C)CC[C@H](O[C@@H]6O[C@H](C(=O)O)[C@@H](O)[C@H](O[C@@H]7OC[C@H](O)[C@H](O[C@@H]8OC[C@H](O)[C@H](O)[C@H]8O)[C@H]7O)[C@H]6O[C@@H]6O[C@H](CO)[C@@H](O)[C@H](O)[C@H]6O)C(C)(C)C5CC[C@]43C)[C@@H]2CC1(C)C (stereo partly specified)	i
COc1ccc(NC(=O)N2Cc3ccccc3-n3cccc3C2c2cccc(Cl)c2)cc1 (stereo unspecified)	i
COc1ccc(C2c3cccn3-c3ccccc3CN2C(=O)Nc2ccc(C)cc2C)cc1 (stereo unspecified)	i
CCc1ccc(C2c3cccn3-c3ccccc3CN2C(=O)Nc2ccccc2)cc1 (stereo unspecified)	i
CC1=C[C@H]2O[C@@H]3[C@H](O)[C@@H](O)[C@](C)([C@@]2(CO)C[C@@H]1O)[C@]31CO1	i
SMILES	Methyltransferases
CCOC(=O)c1ccc(NC(=O)N2Cc3ccccc3-n3cccc3C2C)cc1 (stereo unspecified)	i
COc1cc(C(O)CN)ccc1O (stereo unspecified)	i
O=[S+]1([O-])NCC2(CCN(Cc3ccccn3)C2)Nc2ccccc21 (stereo unspecified)	i
CC(=O)c1ccc(NC(=O)OC[C@H]2C[C@@H]3CCN2C[C@@H]3c2cc(-c3cccs3)nn2C)cc1	i
COc1ccc(CN(C(=O)[C@@H](N)Cc2c(C)cc(C(N)=O)cc2C)[C@@H](C)c2ncc(-c3ccccc3)[nH]2)cc1C(=O)O	i
COc1ccc(C2c3cccn3-c3ccccc3CN2C(=O)Nc2ccc(C)c(C)c2)cc1 (stereo unspecified)	i
CN(C(=O)Cc1ccc(Cl)c(Cl)c1)C(CN1CCCC1)c1cccc(OCC(=O)O)c1 (stereo unspecified)	i
CCOc1ccc(NC(=O)N2Cc3ccccc3-n3cccc3C2c2ccc(CC)cc2)cc1 (stereo unspecified)	i
Cc1ccc(CN2C[C@@H]3C(=O)N(C)C(=O)[C@@H]3C2)o1	i
C/C=C(\C)C(=O)OC1CC2C(CC=C3CC(OC4CC(OC)C(OC5CC(OC)C(OC6CC(OC)C(OC7CC(OC)C(O)C(C)O7)C(C)O6)C(C)O5)C(C)O4)CCC32C)C2(O)CCC(C(C)=O)C12C (stereo unspecified)	i
O=C(Nc1ccccc1)C1=NO[C@@H]2CN(Cc3ccccn3)C[C@H]12	i
CCCS(=O)(=O)NC[C@H]1C[C@@H]2CCN1C[C@@H]2c1cc(C2CCCCC2)nn1C	i
C=C(C)[C@H]1CN[C@H](C(=O)O)[C@H]1CC(=O)O	i
CN1CCC(NCC2(CO)C[C@@H](O)[C@@H](O)C2)CC1 (stereo partly specified)	i
O=C(Nc1ccc(F)cc1)N1Cc2ccccc2-n2cccc2C1c1ccc(F)cc1 (stereo unspecified)	i
COc1ccc(NC(=O)N2Cc3ccccc3-n3cccc3C2C)cc1OC (stereo unspecified)	i
OCc1nnc2n1-c1ccc(Cl)cc1C(c1ccccc1Cl)=NC2	i
CN1CCc2cccc(Cl)c2CC1	i
COc1ccc(-c2cc3c(cn2)CN(C)CCN3)cn1	+
CCOC(=O)c1ccc(NC(=O)N2Cc3ccccc3-n3cccc3C2c2cc(F)cc(F)c2)cc1 (stereo unspecified)	i
COCCCNC(=O)N1Cc2ccccc2-n2cccc2C1c1cccs1 (stereo unspecified)	i
COc1ccc(NC(=O)N2Cc3ccccc3-n3cccc3C2c2ccccc2Cl)c(OC)c1 (stereo unspecified)	i
O=C(NCCc1ccccc1)N1Cc2ccccc2-n2cccc2C1c1cccs1 (stereo unspecified)	i
CCN1C[C@]2(COC)[C@H](O)C[C@H](OC)[C@]34[C@@H]5C[C@]6(O)[C@H](OC(=O)c7ccccc7)[C@@H]5[C@@](O)([C@H]([C@H](OC)[C@H]23)[C@@H]14)[C@@H](O)[C@@H]6OC	i
COC1CC(O[C@H]2CC[C@]3(C=O)C4CC[C@]5(C)[C@@H](C6=CC(=O)OC6)CC[C@]5(O)[C@@H]4CC[C@]3(O)C2)OC(C)C1O[C@@H]1O[C@H](CO)[C@@H](O)[C@H](O)[C@H]1O (stereo partly specified)	i
SMILES	Methyltransferases
O=C1Nc2ccccc2CC12CCN(Cc1cccnc1)C2 (stereo unspecified)	i
CCc1ccc(C2c3cccn3-c3ccccc3CN2C(=O)Nc2cc(OC)ccc2OC)cc1 (stereo unspecified)	i
CC(C)C1c2cccn2-c2ccccc2CN1C(=O)Nc1ccc(F)cc1 (stereo unspecified)	i
C=CC/C=C\C/C=C\CCCCCCCc1cc(O)cc(O)c1	i
CCN1CCCN(C(=O)c2cccnc2)CC12CCOCC2	i
CC1c2cccn2-c2ccccc2CN1C(=O)Nc1cccc(Cl)c1 (stereo unspecified)	i
O=C1NCN(c2ccccc2)C12CCN(CC1COc3ccccc3O1)CC2 (stereo unspecified)	i
Cc1nc(-c2cccs2)cc([C@H]2CN3CC[C@H]2C[C@@H]3COC(=O)Nc2ccc(C(C)C)cc2)n1	i
COc1ccc(C)cc1NC(=O)N1Cc2ccccc2-n2cccc2C1C(C)C (stereo unspecified)	i
COc1ccc(C2c3cccn3-c3ccccc3CN2C(=O)Nc2cccc(C)c2)cc1 (stereo unspecified)	i
COCC(=O)NC[C@H]1C[C@@H]2CCN1C[C@@H]2CN1CCCCC1	i
CN1Cc2c(ccc3c2OCO3)[C@@H]2[C@H]1c1cc3c(cc1C[C@@H]2O)OCO3	i
CCc1ccc(C2c3cccn3-c3ccccc3CN2C(=O)NCc2ccc(F)cc2)cc1 (stereo unspecified)	i
COCCCNC(=O)N1Cc2ccccc2-n2cccc2C1c1ccc(OC)c(OC)c1 (stereo unspecified)	i
COc1ccc(C(C)(C)C)cc1CN[C@H]1C2CCN(CC2)[C@H]1C(c1ccccc1)c1ccccc1	i
CC(=O)NC[C@H]1C[C@@H]2CCN1C[C@@H]2c1cc(-c2ccc3ccccc3c2)nn1C	+
CO/C1=C\C(C)=C\[C@@H](C)[C@@H](O)[C@@H](C)C/C(C)=C/C=C/[C@H](OC)[C@@H]([C@@H](C)[C@@H](O)[C@H](C)[C@@]2(O)C[C@@H](O)[C@H](C)[C@@H](C(C)C)O2)OC1=O	u
Cc1ccc(NC(=O)N2Cc3ccccc3-n3cccc3C2c2ccc(Cl)cc2)cc1C (stereo unspecified)	i
COc1ccc(CCNCc2ccc(OC)c3ccccc23)cc1	u
CCOC(=O)CNC(=O)N1Cc2ccccc2-n2cccc2C1c1ccc(C(C)C)cc1 (stereo unspecified)	i
COC(=O)[C@@]1(C)C(=O)C=C[C@]2(C)c3c(O)cc(C(C)C)cc3[C@H](O)[C@@H](OC(C)=O)C12 (stereo partly specified)	i
O=C(Nc1ccc(F)cc1)N1Cc2ccccc2-n2cccc2C1c1cc(F)cc(F)c1 (stereo unspecified)	i
CC1c2cccn2-c2ccccc2CN1C(=O)NCc1ccc(F)cc1 (stereo unspecified)	i
CCc1ccc(C2c3cccn3-c3ccccc3CN2C(=O)Nc2cccc(Br)c2)cc1 (stereo unspecified)	i
O=C(Nc1ccc(F)cc1)N1Cc2ccccc2-n2cccc2C1c1ccccc1Cl (stereo unspecified)	i
SMILES	Methyltransferases
CSc1ccc(C2c3cccn3-c3ccccc3CN2C(=O)Nc2cccc(C)c2C)cc1 (stereo unspecified)	i
Cc1ccc(C)c(NC(=O)N2Cc3ccccc3-n3cccc3C2c2cccs2)c1 (stereo unspecified)	i
CCc1ccc(C2c3cccn3-c3ccccc3CN2C(=O)Nc2cccc(C)c2)cc1 (stereo unspecified)	i
O=C(N1CCCCC1Cc1ccccc1)n1cc(-c2ccc(-c3ccccc3)cc2)nn1 (stereo unspecified)	u
CCc1ccc(NC(=O)N2Cc3ccccc3-n3cccc3C2C)cc1 (stereo unspecified)	i
CCC1c2cccn2-c2ccccc2CN1C(=O)Nc1cc(C(=O)OC)ccc1C(=O)OC (stereo unspecified)	i
C[C@H]1CN(CC[C@H](O)C2CCCCC2)CC[C@@]1(C)c1cccc(O)c1	u
CN(C)c1ccc(C2c3cccn3-c3ccccc3CN2C(=O)Nc2ccc(F)cc2F)cc1 (stereo unspecified)	i
COc1ccc(NC(=O)N2Cc3ccccc3-n3cccc3C2c2ccc(F)cc2)cc1OC (stereo unspecified)	i
COc1ccc(NC(=O)N2Cc3ccccc3-n3cccc3C2C)c(OC)c1 (stereo unspecified)	i
COc1ccc(C2c3cccn3-c3ccccc3CN2C(=O)Nc2cccc(C)c2C)cc1 (stereo unspecified)	i
CSc1nccc(N2CCC3(CCCN(CC4CC4)C3)C2)n1 (stereo unspecified)	i
CCOc1ccc(C2c3cccn3-c3ccccc3CN2C(=O)Nc2cc(Cl)ccc2C)cc1 (stereo unspecified)	i
CC[C@@H]1C[C@H]2CC[C@H](O2)[C@H](C)C(=O)O[C@@H](C)C[C@@H]2CC[C@@H](O2)[C@@H](C)C(=O)O[C@H](CC)C[C@H]2CC[C@H](O2)[C@H](C)C(=O)O[C@@H](C)C[C@@H]2CC[C@@H](O2)[C@@H](C)C(=O)O1	u

Bioassay records deposited in PubChem BioAssay by National Center for Advancing Translational Sciences (NCATS).
